Screening results as filed in PubChem BioAssay.
PK Bst – alters activity of Bacillus stearothermophilus pyruvate kinase; partly purified Bacillus stearothermophilus pyruvate kinase, luminescence ATP production; ribose 5-phosphate activator present at AC10; Potency, µM; hit rate 1.2% among 51,000; AID 361; in the data active means potency below about 11 µM; inconclusive means mostly about 12 µM to 25 µM; inactive means weaker than that;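 the screen sought inhibitors and activators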;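 also: potency is read from the fitted curve at half-maximal effect; scaled between full activation by ribose 5 phosphate and full inhibition by luteolin; about four in five hits inhibit and the cells do not say which; series up to 57 µM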
YjeE inh – YjeE (TsaE) inhibition, E. coli. purified YjeE, fluorescence polarisation of a bound ADP probe. Potency, µM. hit rate 0.05% among 71,000. P0AF67. AID 605; active = well fitted falling curve; inconclusive = weaker or top-dose-only fall, or a rising curve; inactive = flat or poorly fitted curve;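 also: top concentration of the series not given in the record; excess ADP was the control for the full effect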
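Purified YjeE (10 uM) with BODIPY Texas Red-labeled ADP probe (2 uM); compounds pin-transferred, 15 min at room temperature. Binding inhibition read as decreased fluorescence polarization; ADP titration as control.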
The depositor's hits bear a star; i = inactive; / = not tested or not shown. Only part of the results is shown; count on the stated rates, not on these rows.

| Structure | PK Bst | YjeE inh |
| --- | --- | --- |
| [N-]=[N+]=CC(=O)OC[C@H](N)C(=O)O | >26 | / |
| CC(C)(C)c1ccc(O)c(C[N+](C)(C)C)c1 | / | i |
| CC(=O)C1=C(C)OC(N)=C(C(=O)OC(C)C)C12C(=O)Nc1ccccc12 (stereo not drawn) | >57 | i |
| CCC(C(=O)N1CCC2(CC1)OCCO2)c1ccccc1 (stereo not drawn) | >57 | i |
| CN1CCN(Cc2nc3ccccc3n2C)CC1 | >57 | i |
| COc1ncccc1C(=O)NCC(CC(=O)O)c1ccccc1 (stereo not drawn) | >57 | i |
| COc1ccc2c(c[n+](C)c3c4cc5c(cc4ccc23)OCO5)c1OC | / | i |
| O=C(O)CSCC(=O)O | / | i |
| C[C@H](N)c1cccc(Cl)c1Cl | / | i |
| CN(C)c1ccc(N)cc1 | / | i |
| CC(c1ccc(F)cc1)n1cc(C(=O)NCc2ccc3c(c2)OCO3)nn1 (stereo not drawn) | >57 | i |
| COc1ccc(S(=O)(=O)NCc2ccc(C(=O)N3CCC4(CC3)OCCO4)cc2)cc1 | >57 | i |
| N=c1n(CCO)c2ccccc2n1Cc1ccccc1 | >57 | i |
| O=[N+]([O-])/C=C/c1ccccc1 | / | i |
| Nc1ccccc1 | / | i |
| C[C@@H]1O[C@H](C[N+](C)(C)C)C[C@H]1O | / | i |
| CN(C)P1(N(C)C)=NC(C(F)(F)F)=NC(C(F)(F)F)=N1 | / | i |
| COc1ccc(-n2c(O)c(C(C)=NCCN3CCNCC3)c(=O)[nH]c2=O)cc1 | >57 | i |
| N[C@@H](Cc1c[nH]c2ccccc12)c1nnc(SCc2ccc(F)cc2)o1 | >57 | i |
| C[N+]1([O-])[C@H]2CC[C@H]1CC(OC(=O)[C@@H](CO)c1ccccc1)C2 (stereo partly drawn) | / | i |

Next section.
| Structure | PK Bst | YjeE inh |
| --- | --- | --- |
| CCN1C(=O)c2ccccc2Sc2ccc(C(=O)N3CCC4(CC3)OCCO4)cc21 | >57 | i |
| CCC(C)(C)c1ccc(O)cc1 | / | i |
| O=P(OCC(F)(F)C(F)F)(N1CCCCC1)N1CCCCC1 | / | i |
| Nc1ncc([N+](=O)[O-])s1 | / | i |
| O=S1(=O)CC2(N3CCOCC3)CCCCC21 (stereo not drawn) | / | i |
| CC(=O)O[C@H]1CC[C@H]2[C@@H]3CCC4=C[C@@H](C5SCCS5)[C@H](OC(C)=O)C[C@]4(C)[C@H]3CC[C@@]12C | / | i |
| CCOC(=O)C1CCN(/C=C2/C(=O)NC(=O)N(c3ccc(OCC)cc3)C2=O)CC1 | / | i |
| O=C(O)c1cc(Cl)ccc1Cl | / | i |
| COc1cccc2c1cc([N+](=O)[O-])c1c(C(=O)O)cc3c(c12)OCO3 | / | i |
| Cc1ccc2cccc(OC(=O)N(C)c3ccccc3)c2n1 | / | i |
| Nc1ccc(N2CCN(Cc3ccccc3Cl)CC2)c(Cl)c1 | / | i |
| CCC(Cl)[N+](=O)[O-] (stereo not drawn) | / | i |
| CCSCC[C@H](N)C(=O)O | / | i |
| Cc1ccc(S(=O)(=O)N[C@@H](CCCCN)C(=O)CCl)cc1 | / | i |
| COc1ccc(C2SCC(=O)Nc3c2c(=O)[nH]n3C2CCCCC2)cc1 (stereo not drawn) | >26 | / |
| CN(C)CCc1nn[nH]n1 | >26 | / |
| CCC1(C)CC(=O)NC(=O)C1 | / | i |
| COc1cc(CN2CC3CC(C2)c2cccc(=O)n2C3)cc(OC)c1OC (stereo not drawn) | / | i |
| Cc1ccccc1-c1cncnc1NCCc1cnc[nH]1 | / | i |
| CCC1(CC)C(=O)NC(=Nc2cccc(C(F)(F)F)c2)NC1=O | >57 | i |

Following part
| Structure | PK Bst | YjeE inh |
| --- | --- | --- |
| Clc1ccc([C@@H](OCCN2CCCCC2)c2ccccc2)cc1 | / | i |
| NS(=O)(=O)C[C-]1C=C[CH]([Sb-]([Cl])([Cl])([Cl])([Cl])[Cl])C=C1.c1ccncc1 (stereo not drawn) | / | i |
| Clc1cccc2ccccc12 | / | i |
| O=C(O)CNC(=O)c1ccc([As](=O)(O)O)cc1 | / | i |
| c1ccc(OP(Oc2ccccc2)Oc2ccccc2)cc1 | / | i |
| C=CC(=O)OCC | / | i |
| N#CCBr | / | i |
| NCCCP(=O)(O)CC1CCCCC1 | / | i |
| Cn1c(=O)cc(OCC(=O)N2CCC3(CC2)OCCO3)c2ccccc21 | >57 | i |
| CCOC(=O)c1c(N)n(Cc2ccc(OC)cc2)c2nc3ccccc3nc12 | >57 | i |
| CCBr | / | i |
| C/C(Cl)=C/CC1(CN2CCCC2=O)C(=O)NC(=O)NC1=O | >26 | / |
| N#Cc1c(/N=C/c2c(O)n(Cc3ccco3)c(=O)[nH]c2=O)sc2c1CCCC2 | >57 | i |
| N#Cc1ccccc1Cn1cc(C(=O)c2cccs2)c2ccccc21 | >57 | i |
| O=c1c2ccccc2nc(-c2ccco2)n1-c1nccs1 | >57 | i |
| CC(C)(O)[C@@H]1[C@H]2OC(=O)[C@@H]1[C@]1(O)C[C@H]3O[C@]34C(=O)O[C@H]2[C@@]14C (tested in a mixture with another compound) | / | i |
| CCOC(=O)C1C2c3ccccc3O[C@@]1(C)N=C1SCC(=O)N12 (stereo partly drawn) | >57 | i |
| Clc1ccc(N2C[C@H]3CC[C@@H](C2)N3)nn1 | / | i |
| O=C(/C=C\c1ccc(Cl)cc1)N[C@@]12CCC(=O)[C@@H]3Oc4c(O)ccc5c4[C@@]31CCN(CC1CC1)[C@@H]2C5 | / | i |
| CC(=O)O[C@H]1C[C@@H](O[C@@H]2[C@H](C)O[C@H](O[C@@H]3[C@H](C)O[C@H](O[C@@H]4CC[C@@]5(C)[C@@H](CC[C@]6(C)[C@]5(C)C[C@H](O)[C@]5(C)[C@@H](C7=CC(=O)OC7)CC[C@@]56O)C4)C[C@@H]3O)C[C@@H]2O)O[C@@H](C)[C@H]1O[C@H]1O[C@@H](CO)[C@@H](O)[C@@H](O)[C@@H]1O | / | i |

Additional results:
| Structure | PK Bst | YjeE inh |
| --- | --- | --- |
| CN1CC=C(c2c[nH]c3ccccc23)CC1 | / | i |
| O=Cc1ccco1 | / | i |
| CCN(CC)CCO | / | i |
| COc1ccc(Cn2c(N)c(C(=O)NCc3ccco3)c3nc4ccccc4nc32)cc1OC | >57 | i |
| CCN(CC)CCN=Cc1c(O)n(CCc2ccccc2)c(=O)[nH]c1=O | >26 | / |
| CC(=NC1CCN(Cc2ccccc2)CC1)c1c(O)n(C)c(=O)n(C)c1=O | >57 | i |
| CC[C@]1(C2=NCCN2)Cc2ccccc2O1 | / | i |
| CCCN1CCC[C@@H]2Cc3nc(N)ncc3C[C@H]21 | / | i |
| COc1cc2c(cc1OC)[C@@]13CCN4CC5=CCO[C@H](CC(=O)O)[C@@H]([C@H]1N2)[C@H]5C[C@H]43 | / | i |
| CCOC(=O)c1ccccc1C(=O)OCC | / | i |
| CCC(=NCCO)c1c(O)n(-c2ccccc2)c(=O)[nH]c1=O | >57 | i |
| CC(C)CCOC(=O)c1c(N)n(CC2CCCO2)c2nc3ccccc3nc12 (stereo not drawn) | >57 | i |
| CCCc1[nH]nc2c1C1(C(=O)N(CC(N)=O)c3ccccc31)C(C(=O)OC)=C(N)O2 (stereo not drawn) | >57 | i |
| COc1ccc(CCC(=O)N2CCC3(CC2)OCCO3)cc1 | >57 | i |
| CCC(=NCc1ccc(F)cc1)c1c(O)n(C)c(=O)n(C)c1=O | >57 | i |
| ClC(Cl)c1ccccc1 | / | i |
| Cc1ncc(CNC(=O)N(CCCl)N=O)c(N)n1 | / | i |
| O=C(O)c1ccccc1-c1c2cc(Br)c(=O)cc-2oc2[c]([Hg])c(O)c(Br)cc12 | / | i |
| CN1CCN(c2ncc3ncc(=O)n(C)c3n2)CC1 | / | i |
| c1ccc(N2CC[C@@]3(CCCNC3)C2)cc1 | / | i |

Going on with the list.
| Structure | PK Bst | YjeE inh |
| --- | --- | --- |
| O=C1CN=C(c2cccs2)c2c(sc3c2CCCC3)N1 | >57 | i |
| Cc1ncsc1CCCl | / | i |
| O=C1C2(Cl)C3(Cl)C4(Cl)C(Cl)(Cl)C5(Cl)C3(Cl)C1(Cl)C5(Cl)C24Cl (stereo not drawn) | / | i |
| O=C(COc1ccccc1)N1CCN(CC(O)COc2ccccc2)CC1 (stereo not drawn) | >57 | i |
| O=P(N[C@@H](c1ccccc1)[C@@H]1C[C@H]1CO)(c1ccccc1)c1ccccc1 | / | i |
| O=C1C2CCCN2C(c2ccc(Cl)cc2)N1c1ccccn1 (stereo not drawn) | >57 | i |
| O=C(O)Cc1cnc[nH]1 | / | i |
| C1CNC2NCCNC2N1 (stereo not drawn) | >57 | i |
| CCC#N | / | i |
| Cc1ccc2c(c1)N(CCC(=O)N1CCC3(CC1)OCCO3)C(=O)C(C)O2 (stereo not drawn) | >57 | i |
| CCC(=NCCO)c1c(O)n(C2CCCCC2)c(=O)[nH]c1=O | / | i |
| O=c1[nH]c(=O)n(-c2cccc3ccccc23)c(O)c1C=NCCCn1ccnc1 | >26 | / |
| CN1CCc2cc3c(cc2[C@@H]1[C@@H]1OC(=O)c2c1ccc1c2OCO1)OCO3 | / | i |
| C=CCOC(=O)C1=C(C)OC(N)=C(C#N)[C@@]12C(=O)N(CC(N)=O)c1ccccc12 | >26 | / |
| CCC/C=N/O | / | i |
| c1csc(CN2CC[C@@]3(CCCNC3)C2)n1 | / | i |
| CCCC/C(C)=C/[C@@H](NP(=O)(c1ccccc1)c1ccccc1)c1ccccc1 | / | i |
| CCOc1cccc(N2C(=O)CC(=O)NC2=O)c1 | >57 | i |
| C=CC(=O)NCNC(=O)C=C | / | i |
| O=C(O)C(Br)CBr (stereo not drawn) | / | i |

Single records (already shown). Order of values: PK Bst	YjeE inh
`C1CNC2NCCNC2N1` (stereo not drawn) reads >57	i
`CCC#N` reads /	i
`CCC(=NCCO)c1c(O)n(C2CCCCC2)c(=O)[nH]c1=O` reads /	i
`O=C(COc1ccccc1)N1CCN(CC(O)COc2ccccc2)CC1` (stereo not drawn) reads >57	i
`CCCC/C(C)=C/[C@@H](NP(=O)(c1ccccc1)c1ccccc1)c1ccccc1` reads /	i

Next structures:
| Structure | PK Bst | YjeE inh |
| --- | --- | --- |
| O=[N+]([O-])c1ccccc1O | / | i |
| CCCCOC(=O)C1=C(N)OC2=C(C(=O)CCC2)[C@]12C(=O)Nc1ccccc12 | >57 | i |
| CCCCCCCCCc1ccc(O)cc1 | / | i |
| CC(=NCc1cccnc1)c1c(O)n(C2CCCCC2)c(=O)[nH]c1=O | / | i |
| Cn1c(O)c(C=NC2CC(C)(C)NC(C)(C)C2)c(=O)n(C)c1=O | / | i |
| C=CCn1c(O)c(C(C)=Nc2cc(OC)ccc2OC)c(=O)[nH]c1=O | >57 | i |
| CN1[C@@H]2CC[C@H]1CC(O)C2 (stereo partly drawn) | / | i |
| Cc1cc[c]([Sb]2[O][C@H]([C@H](O)[C@H](O)C(=O)O)[C@@H](CO)[O]2)cc1 | / | i |
| CC(C)CC(C)Nc1ccc(Nc2ccccc2)cc1 (stereo not drawn) | / | i |
| Cc1nc2cnc(N3CCNCC3)nc2n(C)c1=O | / | i |
| COc1ccc(CN2CCN(Cc3ccccc3)CC2)c(OC)c1 | >57 | i |
| CCCN(CCC)C(=O)Cc1c(-c2ccc(Cl)cc2)nc2c(Cl)cc(Cl)cn12 | / | i |
| CN1[C@@H]2CC[C@H]1CC(OC(=O)C1C=Nc3ccccc31)C2 (stereo partly drawn) | >11 | / |
| COP(=O)(OC)O/C(=C\Cl)c1cc(Cl)c(Cl)cc1Cl | / | i |
| COC(=O)C1=C(N)Oc2c(c(=O)oc3ccccc23)[C@]12C(=O)N(C)c1ccccc12 | >57 | i |
| CCOC(=O)C1C(=O)N(C)C2(C)CC1c1ccccc1O2 (stereo not drawn) | >57 | i |
| Cc1onc(-c2ccccc2)c1C(=O)N1CCC2(CC1)OCCO2 | >57 | i |
| ClCc1ccccc1 | / | i |
| CCC[C@@H]1CC2=CC(=O)CC[C@]2(C)[C@@H]2CC[C@@]3(C)[C@H](CC[C@]3(O)CCC(=O)O)[C@H]12 | / | i |
| COc1ccc(OC)c(N2C(=O)NC(=O)C(CCc3ccncc3)(CCc3ccncc3)C2=O)c1 | / | i |

Among those listed so far, six have fluorine:
| Structure | PK Bst | YjeE inh |
| --- | --- | --- |
| CC(c1ccc(F)cc1)n1cc(C(=O)NCc2ccc3c(c2)OCO3)nn1 (stereo not drawn) | >57 | i |
| CN(C)P1(N(C)C)=NC(C(F)(F)F)=NC(C(F)(F)F)=N1 | / | i |
| N[C@@H](Cc1c[nH]c2ccccc12)c1nnc(SCc2ccc(F)cc2)o1 | >57 | i |
| O=P(OCC(F)(F)C(F)F)(N1CCCCC1)N1CCCCC1 | / | i |
| CCC1(CC)C(=O)NC(=Nc2cccc(C(F)(F)F)c2)NC1=O | >57 | i |
| CCC(=NCc1ccc(F)cc1)c1c(O)n(C)c(=O)n(C)c1=O | >57 | i |

More compounds.
| Structure | PK Bst | YjeE inh |
| --- | --- | --- |
| O=NN(c1ccccc1)c1ccccc1 | / | i |
| CCCCNC(=O)Nc1ccc(C(O)(C(=O)OC)C(F)(F)F)cc1 (stereo not drawn) | >26 | / |
| O=P(O)(O)Cc1ccccc1OP(=O)(c1ccccc1)c1ccccc1 | >57 | i |
| CCSc1cc(C2C(C#N)=C(N)Oc3n[nH]c(C)c32)c(C)o1 (stereo not drawn) | >57 | i |
| COc1ccc(CN2CCCCC2c2cccnc2)cc1C (stereo not drawn) | / | i |
| CCNc1nc(Cl)nc(NC(C)C)n1 | / | i |
| Cc1nnc2n1-c1ccc(Br)cc1C(c1ccccc1Cl)=NC2 | / | i |
| BrCC(Br)C1CCC(Br)C(Br)C1 (stereo not drawn) | / | i |
| CCC(=O)N1CCN(CCN=Cc2c(O)n(C)c(=O)n(C)c2=O)CC1 | >57 | i |
